# High-throughput results deposited in PubChem BioAssay by National Center for Advancing Translational Sciences (NCATS).
# miR-21 reporter: raises the signal of a miR-21 reporter. HeLa miR-21 FLuc reporter, luciferase, 48 h. Potency, µM (top dose mostly 38.3 µM), for the others: at the highest dose reporter change, positive = more light. 340,000 tested, under 10 active; active = well fitted rising curve with a large enough effect; inconclusive = small, poorly fitted or top-dose-only effect; inactive = no such curve, though single readings can be large or run the other way;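 further: % of control where 0% means no effect; miR-21 action dims this reporter so a rising signal means less miR-21 action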
#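 Compounds were titrated across several concentrations (up to approximately 40 uM) and incubated 48 hours with HeLa miR-21-FLuc reporter cells (miR-21 target sequence downstream of FLuc, endogenous miR-21). Readout was firefly luciferase luminescence after lytic detection reagent.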
# GLA inh pH 4.5: inhibitors of human alpha-galactosidase A at pH 4.5. P06280. purified enzyme, 4-MU-alpha-Gal fluorescence, pH 4.5. 230,000 tested, under 10 active. activity change, negative = inhibition, % at 105 µM. AID 1467; inconclusive = small, poorly fitted or top-dose-only inhibition, or a rising curve; inactive = flat fitted curve, though single readings scatter; no compound was filed as active;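 further: 0% = full activity with enzyme and -100% = basal without enzyme; dose as in the result columns while the protocol names 77 µM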
# Target sequence (P06280 whole entry, looked up): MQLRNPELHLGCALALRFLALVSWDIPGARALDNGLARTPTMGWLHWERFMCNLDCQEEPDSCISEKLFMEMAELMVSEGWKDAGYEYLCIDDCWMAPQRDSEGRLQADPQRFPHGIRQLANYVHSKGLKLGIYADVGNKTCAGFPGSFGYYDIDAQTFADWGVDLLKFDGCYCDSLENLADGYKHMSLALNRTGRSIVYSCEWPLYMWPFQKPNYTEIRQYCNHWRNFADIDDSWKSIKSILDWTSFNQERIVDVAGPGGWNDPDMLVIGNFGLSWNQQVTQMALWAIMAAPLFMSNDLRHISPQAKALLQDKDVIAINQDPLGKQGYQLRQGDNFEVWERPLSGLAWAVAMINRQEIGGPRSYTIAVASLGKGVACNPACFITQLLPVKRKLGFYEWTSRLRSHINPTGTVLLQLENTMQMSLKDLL
# Rango release inh: inhibitors of RanGTP-induced Rango-importin beta complex dissociation. Biochemical FRET Rango-importin beta, RanGTP-induced dissociation. Potency, µM (top dose mostly 46.1 µM), inactives show top-dose activity change, negative = inhibition. 340,000 compounds, 0.071% hits. AID 540253; active means falling FRET ratio curve, often poorly fitted, with flat reads before Ran was added; inconclusive means other falling curves, or compound fluorescence or quenching; inactive means flat or rising ratio curve;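 further: potency means the concentration at half of the fitted maximal effect; % of control where 0% means no effect; nearly all actives have a fitted effect of over 45% in size; -100% = wells without RanGTP and RCC1; the record marks most hits as doubtful in a second field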
#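 Rango (0.1 uM)–importin beta (0.25 uM) complex; RanGTP-RCC1 trigger; 45 min RT; CFP/YFP FRET read.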
# Rango-impB inh: Rango-importin beta binding inhibition. Rango CFP/YFP FRET sensor + importin beta, 45 min. Potency, µM (top dose mostly 92.2 µM), for inactives: at the highest dose inhibition of complex formation. 340,000 compounds, 0.031% hits; active = rising FRET ratio curve, often small or poorly fitted; inconclusive = mostly compound fluorescence or quenching in the first reads; inactive = flat curves in all reads;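 further: potency means the concentration at half of the fitted maximal effect; 0% = DMSO wells and 100% = buffer wells lacking importin beta; nearly all actives have a fitted effect of over 15% in size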
#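 Inhibition scored from the CFP 486 nm/YFP 530 nm FRET ratio 45 min after adding 0.125 microM importin beta to 50 nM Rango biosensor preincubated 5 min with compound (room temperature, PBS with DTT, Tween-20, BSA). No-importin wells as positive control.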
# Numbers without * were called inactive; u = inconclusive; x = not tested or not shown.
# Values run as follows: miR-21 reporter	GLA inh pH 4.5	Rango release inh	Rango-impB inh
- CC(OC(=O)CCc1c[nH]c2ccccc12)C(=O)c1ccccc1 (configuration not stated)
→ -1.9%	-11.2	8.6%	0.2%
- CSc1cccc(NC(=O)c2cnccn2)c1
→ -40.9%	7.0	-11.6%	-0.8%
- CCCC(=O)N(c1ccc2oc(=O)sc2c1)S(=O)(=O)c1ccccc1
→ 1.3%	-5.1	11.8%	2.7%
- CCSCc1nnc(SCC(=O)Nc2cccc(C(C)=O)c2)n1C
→ 4.1%	-7.1	12.5%	0.8%
- CCOC(=O)c1cnc2c(ccc3ccccc32)c1NCCCN(C)C
→ -16.4%	x	11.3%	0.0%
- O=C(NCCN1C(=O)S/C(=C\c2ccccc2F)C1=O)C1CC(=O)N(Cc2ccccc2)C1 (configuration not stated)
→ x	x	0.6%	-1.1%
- CCOc1ccc(NC(=O)CN(C)C(=O)c2ccc3nc(CC)c(CC)nc3c2)cc1OCC
→ x	x	5.1%	2.9%
- O=C(CSc1ccc(Br)cc1)N1CCN(C(=O)c2ccco2)CC1
→ -0.5%	-1.7	6.8%	-0.7%
- Cc1ccc(C(=O)N/C(=C\c2cccs2)C(=O)N2CCCCCC2)cc1
→ -13.9%	-2.7	10.1%	1.8%
- CCN1C[C@@H]2[C@@H]3C(=O)N(C)C(=O)[C@@H]3[C@](C)(C1=O)N2C(=O)c1ccc(F)cc1
→ x	x	-25.5%	-0.6%
- Cc1ccc(NC(=O)COC(=O)Cc2ccsc2)c(C)c1
→ -10.6%	9.3	2.6%	-0.4%
- Fc1ccc(NC(=S)N2CCCCC2)cc1
→ -11.0%	1.0	-8.9%	-0.9%
- O=S1(=O)[C@H]2C[C@@H]3C=C[C@@]2(CN1Cc1ccc(Cl)cc1)O3
→ -0.7%	x	-4.9%	0.4%
- C/C(N)=C(/C#N)C(=O)CSc1ccc2c(c1)OCCO2
→ -40.6%	-1.5	1.2%	-3.2%
- O=C(NCc1ccc2c(c1)OCO2)C1CCCN(S(=O)(=O)c2cccnc2)C1 (configuration not stated)
→ -11.5%	7.2	-5.8%	0.5%
- Cc1c(C(=O)OCC(=O)NCc2ccc3c(c2)OCO3)cccc1[N+](=O)[O-]
→ -8.0%	-3.9	-1.6%	0.0%
- CCCC(CC)Sc1nc2c([nH]1)c(=S)n(C)c(=O)n2C (configuration not stated)
→ x	x	22.0%	-4.2%
- CC(C)CCNC(=O)CC1Nc2c3ccccc3nc(=S)n2C1=O (configuration not stated)
→ -0.6%	4.7	-14.3%	3.6%
- COc1ccc(C2C(Oc3ccccc3C)C(=O)N2Cc2ccc(F)cc2)cc1OC (configuration not stated)
→ 2.0%	2.2	23.6%	-2.1%
- NC(=O)c1ccc(=O)n(C2OC(CO)C(O)C2O)c1 (configuration not stated)
→ x	x	2.5%	0.8%
- Cc1cc(C)n(S(=O)(=O)c2ccccc2)n1
→ 0.2%	-22.5	6.7%	0.1%
- Cc1cccc(C)c1OCCCCCNCCO
→ 0.7%	1.3	8.8%	u
- COc1ccccc1C(CNC(=O)c1ccc(-c2ccccc2Cl)o1)N1CCCC1 (configuration not stated)
→ x	x	-11.4%	u
- O=C(NC(=S)Nc1ccccc1F)c1ccc(Br)o1
→ -54.1%	-13.0	0.3%	3.3%
- CCc1cc(C(=O)OC)c(NC(=O)c2cc(Br)cs2)s1
→ -7.5%	11.4	0.2%	-1.7%
- Cc1cc2c(C)cc(=O)[nH]c2cc1NC(=O)CCl
→ u	-4.6	-29.2%	1.4%
- CN(Cc1cccc(Cl)c1Cl)C(=O)c1cc(S(=O)(=O)N2CCOCC2)ccc1F
→ x	x	0.7%	4.3%
- Cc1nc(-c2cccs2)ccc1C(=O)O
→ 0.1%	-6.6	-0.7%	-4.3%
- CC(C)[C@H](NC(=O)c1ccccc1)C(=O)N1CCc2ccccc21
→ -6.8%	-0.3	-17.3%	-1.1%
- Cc1cc(C)c2ccc(NN)nc2c1O
→ -0.6%	-7.9	0.5%	3.2%
- O=C1c2cccc3cccc(c23)C(=O)N1CC1CCN(CC(O)COCc2ccc3c(c2)OCO3)CC1 (configuration not stated)
→ 10.3%	-9.1	-4.9%	-3.5%
- O=C(COC(=O)c1ccc(Cl)nc1)NNC(=O)c1ccc(Cl)cc1
→ x	x	0.0%	0.5%
- CC(O)CN(Cc1ccc(Cl)cc1)CC(C)O (configuration not stated)
→ -3.0%	1.4	15.3%	0.2%
- CCc1nc(SCC(=O)Nc2cccc3ccccc23)[nH]c(=O)c1C
→ 6.6%	x	-10.3%	1.4%
- Cc1ccc(N2CCN(/N=C/c3cccs3)CC2)cc1
→ -8.4%	-14.4	-1.9%	-0.1%
- CCOC(=O)C1(O)CSc2nc3sc(C(=O)O)c(C)c3c(=O)n21 (configuration not stated)
→ 1.3%	-1.1	5.9%	1.0%
- O=C(Nc1nnc(-c2ccccc2SCc2ccccc2F)s1)Nc1ccccc1F
→ -0.9%	2.6	-2.9%	u
- O=C(Nc1cccc(O)c1)c1ccc([N+](=O)[O-])cc1Cl
→ -5.7%	-2.3	-2.2%	-0.8%
- COc1c(C(=O)N2CCCC2)ccc2ccccc12
→ -7.1%	-4.5	-6.9%	-3.4%
- CC(C)(Oc1ccc(Cl)cc1)C(=O)NCC(c1cccs1)N1CCOCC1 (configuration not stated)
→ x	x	10.5%	-2.0%
- COc1ccc(CCNC(=O)COC(=O)/C=C/c2ccc3c(c2)OCO3)cc1OC
→ x	x	4.1%	0.7%
- Nc1nc2n(n1)C(=O)CC(c1ccccc1)N2 (configuration not stated)
→ 0.4%	-5.1	-3.0%	-0.1%
- Cc1ccccc1-c1nc(CSc2nc3c(c(=O)[nH]2)CCC3)c(C)o1
→ -7.2%	2.7	19.1%	u
- COc1ccc(S(=O)(=O)N2CCCCC2)cc1NC(=O)CCCOc1ccccc1
→ x	x	0.1%	0.8%
- O=c1oc2ccccc2c(NCCO)c1[N+](=O)[O-]
→ 4.1%	7.0	2.3%	-0.2%
- O=C(CCCNS(=O)(=O)c1cccc2nsnc12)NC1CCCCC1
→ -6.2%	-8.3	4.2%	u
- Cc1cccc(C(=O)NNC(=O)c2ccc(NS(=O)(=O)c3cccs3)cc2)c1C
→ x	x	4.4%	-1.3%
- COc1ccc(-n2c(SCC3OCCO3)nc3c(sc(=S)n3-c3ccccc3)c2=O)cc1OC
→ 6.8%	-5.9	7.8%	u
- CCOC(=O)Cc1nn(Cc2ccccc2)c(=O)c2ccccc12
→ -3.7%	-7.8	0.1%	-0.1%
- CSc1ccc(C=O)cc1
→ x	x	-8.0%	-1.3%
- Cn1c(N)c(C(=O)COC(=O)CSc2ccc3ccccc3c2)c(=O)n(C)c1=O
→ -0.5%	0.5	25.8%	0.7%
- CCOC(=O)C1(NC(=O)C2(NC(=O)CN3C(=O)c4ccccc4C3=O)CCCC2)CCCC1
→ x	x	19.8%	2.6%
- O=C(COc1ccccc1)NCC(=O)N/N=C/c1ccccc1
→ -2.3%	0.3	14.2%	0.7%
- O=C(O)c1ccccc1Nc1ccnc(C(F)(F)F)c1
→ -10.9%	x	-10.0%	-0.3%
- CC(O)C(NC=C1C(=O)OC(C)(C)OC1=O)C(=O)O (configuration not stated)
→ -1.5%	10.0	2.8%	-0.2%
- COCc1cc(C)nc(Nc2ccccc2C)c1C#N
→ -10.6%	2.1	10.0%	-1.4%
- CCCCCCCCCCOC(=O)Cn1c(COc2ccc(Cl)cc2)[n+](C)c2ccccc21
→ u	x	22.9%	12.3%
- O=C(/C=C/N1CCN(Cc2ccccc2)CC1)C(F)(F)F
→ 3.1%	-7.4	-6.4%	-0.7%
- Cc1cc(=O)n2ccsc2n1
→ -4.3%	1.6	-8.1%	4.1%
- O=C(O)CN1CCCCC1
→ 0.4%	4.1	-5.7%	-0.7%

# 4 compounds already listed, arranged by their value in GLA inh pH 4.5, ascending:
# Values run as follows: miR-21 reporter	GLA inh pH 4.5	Rango release inh	Rango-impB inh
- Nc1nc2n(n1)C(=O)CC(c1ccccc1)N2 (configuration not stated)
→ 0.4%	-5.1	-3.0%	-0.1%
- COc1c(C(=O)N2CCCC2)ccc2ccccc12
→ -7.1%	-4.5	-6.9%	-3.4%
- Cn1c(N)c(C(=O)COC(=O)CSc2ccc3ccccc3c2)c(=O)n(C)c1=O
→ -0.5%	0.5	25.8%	0.7%
- CC(O)CN(Cc1ccc(Cl)cc1)CC(C)O (configuration not stated)
→ -3.0%	1.4	15.3%	0.2%

# Additional records follow.
# Values run as follows: miR-21 reporter	GLA inh pH 4.5	Rango release inh	Rango-impB inh
- N#CCc1ccc(Oc2ccc([N+](=O)[O-])cn2)cc1
→ 1.6%	-3.5	-1.2%	-1.6%
- Cc1ccc(S(=O)(=O)N2CCCCC2)cc1C(=O)NCCC1=CCCCC1
→ x	x	43.2%	-0.3%
- CCOC(=O)c1cnn(-c2ccccc2)c1NC(=O)C(F)(F)C(F)(F)C(F)(F)F
→ 2.2%	2.6	8.4%	-0.6%
- CCOC(=O)c1c(NC(=O)CN2CCCCC2)sc2c1CCN(C(=O)OCC)C2
→ -0.3%	-6.0	5.1%	-0.4%
- O=C(c1ccc2c(c1)OCO2)C1CCCN(Cc2c(F)ccc(F)c2F)C1 (configuration not stated)
→ -2.0%	x	21.0%	1.0%
- O=C(NNC(=S)NC(=O)c1cccs1)c1ccc(O)cc1
→ -19.6%	x	-6.8%	-1.2%
- CCOC(=O)c1sc2nc(CC(C)C)c3c(c2c1N)CCC3
→ -8.9%	11.3	u	3.7%
- Cn1nnc2c[n+](CC(=O)c3ccc(Cl)cc3)cc(Br)c21
→ 25.6%	-5.0	u	-1.4%
- CC1CCN(CCCNC(=O)C2CC(=O)N(CCc3ccccc3)C2)CC1 (configuration not stated)
→ -4.1%	x	-3.0%	3.0%
- Cc1ccc(S(=O)(=O)N2CCC(C(=O)N/N=C/c3cccn3C)CC2)cc1
→ x	x	-3.1%	-0.4%
- N#Cc1ccc(CN2CCN(CC(=O)Nc3ccccc3C(=O)NC3CC3)CC2)cc1
→ x	x	14.4%	0.4%
- CCOc1ccc(C(c2c(C)[nH][nH]c2=O)c2c(C)[nH][nH]c2=O)cc1OC
→ -8.2%	-6.5	12.4%	8.7%
- COc1ccccc1C1CC(=O)NC(C)=C1C(=O)OC(C)C (configuration not stated)
→ -5.7%	-13.8	10.0%	4.8%
- Cc1cccc(NC(=O)CC(C)S(=O)(=O)c2ccc3c(c2)NC(=O)CO3)c1C (configuration not stated)
→ 16.3%	x	-5.0%	0.1%
- CC1CCCCC1NC(=O)Cn1cc([N+](=O)[O-])ccc1=O (configuration not stated)
→ x	x	12.1%	-0.8%
- CCOC(=O)C1CCN(C(=O)NS(=O)(=O)c2ccc(C)cc2)CC1
→ 1.0%	5.2	0.6%	2.2%
- CN(CC(=O)Nc1ccccc1C(F)(F)F)C(=O)c1cc2c(s1)CCCCC2
→ x	x	1.3%	8.2%
- O=C1C2CCCN2C(c2ccc(Cl)cc2)N1c1nccs1 (configuration not stated)
→ -0.8%	-7.6	0.0%	u
- CN(C)S(=O)(=O)c1ccc(N2CCCC2)c(C(=O)N2CCN(c3ccc([N+](=O)[O-])cc3)CC2)c1
→ -5.1%	-14.7	u	-0.3%
- Cc1cccc2c1c(N=NC(N)=S)c(O)n2C1OC(CO)C(O)C(O)C1O (configuration not stated)
→ 3.9%	x	1.1%	1.1%
- COC(=O)C1C(=O)NCC1c1ccccc1 (configuration not stated)
→ -2.9%	2.7	11.7%	0.0%
- O=S(=O)(c1ccc(F)cc1)N1CCN=C1SCc1cccnc1
→ -10.1%	1.7	0.5%	1.7%
- CCOC(=O)Nc1ccc(S(=O)(=O)Nn2cnnc2)cc1
→ 1.0%	0.8	-8.4%	0.7%
- Cc1ccc2nc(Cl)c(C3CC(c4cccs4)=NN3S(C)(=O)=O)cc2c1 (configuration not stated)
→ -14.8%	-16.5	15.2%	-0.8%
- CC(=O)c1ccc(-n2nncc2-c2ccc([N+](=O)[O-])cc2)cc1
→ -12.3%	10.1	4.2%	-2.3%
- CCOc1cc(C=NN=C2c3ccccc3-c3ccccc32)ccc1O
→ x	x	-4.6%	0.5%
- Cc1ccccc1-n1nnnc1SCC(=O)NCC1CCCO1 (configuration not stated)
→ -0.1%	-1.9	-9.0%	4.9%

# Some of the compounds tested (hit frequency here may not be typical).
